# MgrA DNA FP: modulators of Staphylococcus aureus MgrA DNA binding; fluorescence polarization; inhibition, %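 (about 10 µg/mL by stock and volumes)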; hit rate 0.13% among 84,000;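 active means above 50% in either of two replicates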;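 further: 0% = protein plus DNA without compound and 100% = DNA alone without protein; higher means less MgrA bound to DNA so lower polarization; one replicate is shown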
# Sa helicase inh: S. aureus DNA helicase inhibition; purified S. aureus helicase, fluorescence unwinding assay; about half of the hits fall short of the stated cut; AID 485395; inhibition, %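 (tested at about 80 µM)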; hit rate 0.05% among 120,000;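 active means both duplicates at 50% or more, or one of them with a favoured structure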;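 further: 0% = mean of negative control wells and 100% = mean of positive control wells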
# The depositor's hits bear a star; / = not tested or not shown; & = joins results of further samples. Only part of the results is shown (hit frequency here may not be typical).
SMILES,MgrA DNA FP,Sa helicase inh
CCC(Sc1nc(C)c(Cc2ccccc2)c(=O)[nH]1)C(=O)O (configuration not stated),/,-19.0
CCCOC(=O)CCc1n[nH]c(=O)[nH]c1=O,/,26.0
Nc1ccc2[nH]c(=O)nc(-c3ccccc3)c2c1,-1.2,14.0
O=c1[nH]nc(Sc2ncnc3sc4c(c23)CCCCC4)n1CC1CCCO1 (configuration not stated),/,5.0
N/C(CS(=O)(=O)Cc1cccc(C(F)(F)F)c1)=N\O,-0.9,/
COc1cc(OC)c(NC(=O)Cn2c(=O)n(C)c(=O)c3ccccc32)cc1Cl,-1.1,0.0
Cc1cccc(C(=O)NCC(=O)O)c1,-3.0,/
CCCCn1c(=O)c2oc3ccccc3c2n(CC(N)=O)c1=O,-0.7,4.0
COc1ccc(CCNC(=O)c2nn(C)c3c2COc2ccccc2-3)cc1OC,/,-8.0
Cc1ccc(OCC(=O)Nc2cccnc2)c(-n2nc3ccccc3n2)c1,-3.0,3.0
COc1ccc(N2CCN(Cc3ccc(Cl)nc3)CC2)cc1,-0.8,/
O=c1[nH]c(Nc2nc(-c3ccccc3)c3cc(Cl)ccc3n2)nc2c1CCC2,/,-2.0
O=C(NCC1CCCO1)c1cccc(-n2cnnn2)c1 (configuration not stated),/,-12.0
CCOc1ccc(Cl)cc1S(=O)(=O)N1CCC(C(=O)NC(C)COC)CC1 (configuration not stated),-1.1,0.0
CSc1cccc(NC(=O)c2cnn3ccccc23)c1,0.5,20.0
C/C(=N\NC(N)=O)c1cccs1,-2.3,/
O=c1c(C=NCc2ccc3c(c2)OCO3)c(O)n(C2CCCCC2)c(=O)n1C1CCCCC1,1.2,-3.0
CCCN(CCC)C(=O)c1ccc(CNS(=O)(=O)c2ccc(F)cc2)cc1,3.4,10.0
N#Cc1ccsc1NC(=O)CSc1nnc(-c2ccccc2)n1Cc1ccc2c(c1)OCO2,/,-15.0
CCCC1OCC2(CO)C(C)C=C(C)C1C2C (configuration not stated),1.2,10.0
COC(=O)c1ccc(NC(=O)CCc2c(C)nc3c(c(C)nn3C)c2C)cc1,/,5.0
CC(C)C(c1nnnn1CCc1ccccc1)N(Cc1ccco1)Cc1ccccc1Cl (configuration not stated),-0.9,5.0
O=C(OCc1ccc(F)cc1F)c1ccc(F)cc1,1.1,5.0
CCCCC[C@H](O)/C=C/C1=C(CCCCCCC(=O)O)C(=O)CC1,-0.4,/
CCN1CCN(C(=O)NC(C(=O)NC2C(=O)N3C(C(=O)O)=C(CSc4nnnn4C)CSC23)c2ccc(O)cc2)C(=O)C1=O (configuration not stated),2.9,/
CCSC1=C(C#N)C(c2ccccc2)CC(=O)N1 (configuration not stated),/,-8.0
O=C(COC(=O)Cc1ccsc1)NC1CCCCCC1,2.9,10.0
CSc1nnc(CNC(=O)c2ccccc2)n1-c1ccccc1,/,15.0
O=[N+]([O-])c1ccc(S(=O)(=O)c2ccccc2)c(Cl)c1,1.6,/
O=C(Cc1cccs1)N1CCN=C1SCc1ccccc1,/,2.0
Cc1ccc(NCC(=O)NC2CCCCC2C)c(C)c1 (configuration not stated),/,-5.0
Cc1[nH]c2ccccc2c1C(=O)CSc1nnnn1-c1ccccc1,/,-24.0
Cc1ccc(-n2ncc3c(=O)[nH]cnc32)c(C)c1,/,-6.0
COc1cccc(NC(=S)NCc2cccnc2)c1,2.3,/
CCCn1nc(C(=O)OC)c2ccccc2c1=O,/,-3.0
O=C(CSc1cccc2cccnc12)OCC(=O)c1ccc(Br)cc1,-2.8,14.0
CCc1ccc[n+](OC(=O)N(CC)CC)c1,14.4,15.0
O=C(CN1C(=O)/C(=C/c2ccccc2)SC1=S)Nc1cc([N+](=O)[O-])ccc1O,3.1,/
Oc1cccc2ccc(Oc3cccc4cccnc34)nc12,0.0,5.0
COC(=O)CC1C(=O)NCCN1C(=O)c1ccc(OC)cc1 (configuration not stated),/,5.0
Cc1cccc(N2CCN(C(=O)CCCC(=O)N3CCN(c4cccc(C)c4C)CC3)CC2)c1C,1.0,-13.0
CCOC(=O)CSc1nnc(CCN2C(=O)c3cccc4cccc(c34)C2=O)n1-c1ccccc1,0.0,/
CCOC(=O)c1oc2ccc(Br)cc2c1COC(=O)C1=COCCO1,/,9.0
CCOc1ccccc1NC(=O)c1cnccn1,1.5,5.0
Cc1ccc(C(=O)Nc2ccccc2)c(C)n1,-1.5,/
CC1CC(C)CN(C(=O)CCCn2ncn3c(cc4occc43)c2=O)C1 (configuration not stated),/,-15.0
N#Cc1sc2nc3ccccc3n2c1/N=C/c1cccs1,0.2,/
c1ccc(SCCNCc2ccccn2)cc1,/,-2.0
COc1cc2c(C(=O)NCCC3=CCCCC3)cn(C)c(=O)c2cc1OC,/,32.0
CC1CCCCC1NC(=O)c1ccccc1Cl (configuration not stated),0.4,-12.0
# Remaining list, next part.
SMILES,MgrA DNA FP,Sa helicase inh
Cc1ccc(S(=O)(=O)NCc2nnc(N)s2)cc1,/,11.0
Clc1ccc(N2Cc3ccccc3C2)cc1,/,7.0
CCCNC(=O)c1cc(-c2cccc(OC)c2)on1,/,3.0
CC(Sc1nncn1C)C(=O)N(Cc1ccccc1)Cc1ccccc1 (configuration not stated),/,-5.0
Clc1cccc(C2OCC3(CO2)COC(c2cccc(Cl)c2)OC3)c1 (configuration not stated),1.6,15.0
COC(=O)N/N=C(\C)c1ccccc1Br,/,10.0
CC1NC(=O)NC1CCCCC(=O)O (configuration not stated),0.0,11.0
CP(=O)(O)c1nccn1-c1ccc(Cl)nn1,0.3,6.0
O=C(O)CCNC(=S)Nc1ccc(Cl)cc1,/,22.0
Cc1ccc(C(=O)NCC2COc3ccccc3O2)cc1 (configuration not stated),-2.4,/
O=C1/C(=C\Nc2ccc(F)cc2)S(=O)CN1c1ccc(F)cc1 (configuration not stated),2.3,/
CC1(C)CC(=O)C2=C(C1)OC(N)=C(C#N)C2c1ccc2c(c1Cl)OCO2 (configuration not stated),-1.1,5.0
Cc1ccc(OCC(=O)N2CCc3ccccc3C2)c(Br)c1,/,-2.0
CC(C)C(NC(=O)c1ccc(NS(C)(=O)=O)cc1)C(C)C,0.5,14.0
CCC1NCCNC1=O (configuration not stated),/,-13.0
CC1CC2=C(NC(=S)NC2c2ccc(Cl)cc2)/C(=C/c2ccc(Cl)cc2)C1 (configuration not stated),1.2,4.0
CC(C)C1Nc2ccc(C(=O)NCc3ccccc3)cc2NC1=O (configuration not stated),/,12.0
CC(=O)Nc1ccc(NC(=O)CN(C)S(=O)(=O)c2ccc3nc(C)sc3c2)cc1,1.1,2.0
COC(=O)Nc1sc(Cc2ccccc2)cc1C(N)=O,22.0,16.0
O=C1CC(c2ccc(Cl)cc2)Nc2nc3ccccc3n21 (configuration not stated),1.7,6.0
CNC(=O)c1ccccc1-c1nc(-c2ccccc2OC)no1,-1.6,24.0
Cc1c(Cl)cn2c(=O)cc(CN(C)Cc3nc4ccccc4c(=O)[nH]3)nc2c1Cl,/,-13.0
Cc1ccc(CS(=O)(=O)c2oc(-c3cccs3)nc2S(=O)(=O)c2ccc(F)cc2)cc1,/,27.0
CCOC(=O)CC(=O)Nc1ccsc1C(N)=O,-1.5,/
O=C(CSc1nncn1-c1ccccc1)c1ccc(S(=O)(=O)N2CCCC2)cc1,/,-3.0
N#CC(C#N)=CNCCc1ccncc1,/,-10.0
Cc1ccc(N2C(=O)C(C)(C)C(C)(C)C2=O)cc1,2.3,-25.0
CC12CC3(C)CC(C)(C1)CC(C(=O)NCC(=O)O)(C2)C3,-2.3,5.0
Nc1ccccc1-c1nnc(SCC(=O)c2ccc(Cl)cc2)[nH]c1=O,/,-2.0
O=C(COC(=O)Cc1ccc(Br)cc1)NC1CC1,2.7,24.0

# Part of the list above, with two lines to a compound:
# Below each compound: MgrA DNA FP, Sa helicase inh
- CCC(Sc1nc(C)c(Cc2ccccc2)c(=O)[nH]1)C(=O)O (configuration not stated)
→ /, -19.0
- CCCOC(=O)CCc1n[nH]c(=O)[nH]c1=O
→ /, 26.0
- Nc1ccc2[nH]c(=O)nc(-c3ccccc3)c2c1
→ -1.2, 14.0

# (further entries)
SMILES,MgrA DNA FP,Sa helicase inh
CCOC(=O)c1c(C)oc(NC(=O)Nc2ccc(F)cc2)c1C(=O)OCC,-2.2,6.0
Cc1nc2ccccn2c1/C=C1\C(=O)N(C)C(=S)N1C,/,-1.0
O=[N+]([O-])c1cc(C(F)(F)F)ccc1Oc1ccccc1,-2.1,/
CCOc1ccc(CCNC(=O)CSc2nc(C)c(Cl)c(C)c2C#N)cc1OCC,/,3.0
COc1ccc(N2CCN(C(=O)[C@H](C)N3C(=O)c4cc(Cl)c(Cl)cc4C3=O)CC2)cc1,/,10.0
CCn1cc(S(=O)(=O)c2cc(C)ccc2C)c(=O)c2cc(F)c(N3CCOCC3)cc21,/,-4.0
Cc1c(N(C)CS(=O)(=O)O)c(=O)n(-c2ccccc2)n1C,-0.2&4.1,/
Cc1[nH]n(-c2ccc(Br)cc2)c(=O)c1C1=c2ccccc2=NC1=O,1.2,20.0
N#CCN(CC#N)C(=O)c1ccco1,-2.8,17.0
O=C1Nc2ccccc2/C1=C/C1CC=CCC1 (configuration not stated),-0.9,17.0
Cc1nc(SCC(=O)N(C)c2ccccc2)c(C#N)c(C)c1C,-1.3,-3.0
COc1ccc(CCN2CC(C(=O)O)CC2=O)cc1 (configuration not stated),-0.6,1.0
CCc1ccc(S(=O)(=O)Nc2ccc(-c3nc4cccnc4s3)cc2)s1,/,4.0
CC1=CC(C)(C)Nc2ccc(OC(=O)c3ccc(Cl)cc3)cc21,-1.1,-20.0
Cc1cccc2nc(-c3cc4ccccc4s3)oc(=O)c12,2.6,/
CCCc1c(C)c(C#N)c2nc3ccccc3n2c1NCCCn1ccnc1,/,6.0
Cc1nc2ncnn2c(C)c1CC(=O)O,/,17.0
CC(C)(C)SCC(=O)Nc1nn2cnnc2s1,/,7.0
O=C(COc1ccc(C(=O)c2ccc(F)cc2)cc1)NCCN1C(=O)CSC1=O,/,-9.0
CCOC(=O)CC1=Nn2c(C)nnc2SC1,/,6.0
COc1ccc(/C=C2/C(=O)N=C(N)N2C)cc1,/,20.0
COc1ccc(OC(=O)c2ccc(Cl)cc2)cc1,-2.3,10.0
COC(=O)C(NC(=O)Cc1c(C)nc2c(-c3ccccc3)c(C)nn2c1C)C(C)C (configuration not stated),-0.7,10.0
COc1ccc(N2CCN(C(=O)c3cc(C)[nH]n3)CC2)cc1,/,2.0
CC1SC2(NC1=O)C1CC3CC(C1)CC2C3 (configuration not stated),1.1,5.0
Cc1nc(C(F)(F)F)ccc1NC(=O)C(F)(F)Sc1ccccc1,-1.2,/
COc1ccc(C(=O)NNc2nnc(C(C)(C)C)c(=O)n2N)cc1,/,-4.0
C=CCNc1nc(-c2ccc(OC)cc2)cs1,-5.1,13.0
C=C(C)C(=O)Oc1ccc2c(c1)C(C)=CC(C)(C)N2,/,8.0
Cc1ccc(CCNC(=O)C2CC(=O)N(C3CCCC3)C2)cc1 (configuration not stated),/,4.0
CN1/C(=C/C(=O)c2ccco2)Sc2ccccc21,-1.9,8.0
COc1cccc(C(=O)n2nc(-c3cccnc3)nc2NCc2ccco2)c1,/,-9.0
O=C(Nc1ccc2oc(=O)ccc2c1)c1cc2ccccc2o1,-2.4,6.0
OCC(O)Cn1c2ccc(Br)cc2c2cc(Br)ccc21 (configuration not stated),0.4,/
Cc1cc(C)n(C(=O)N2CCOCC2)n1,/,9.0
CCOc1nc(Nc2ccccc2)nc(Nc2ccccc2)n1,-0.6,1.0
Cc1ccc(C(=O)C2CCN(C(=O)c3ccc(C)cc3)CC2)cc1,0.4,/
Cc1cc(C)c(C(=O)Nc2ccccc2)c(CC(C)(C)C(=O)O)c1,-3.5,/
COc1cc([N+](=O)[O-])c(OC)cc1SCC(=O)NNC(=S)Nc1cccc(Cl)c1C,5.2,/
Cc1cc(Br)c2c3c(c(N)c(=O)[nH]c13)-c1ccccc1C2=O,20.6,-82.0
O=C(O)CC1(CC(=O)N2CCc3ccccc32)CCCC1,0.2,-22.0
CNc1nc(Oc2ccc(C(=O)OC)cc2)nc(SC)n1,/,-21.0
CSc1nnc2[nH]c(=O)cc(N)n12,-0.7,6.0
C1CNCC(CN2CCCC2)C1 (configuration not stated),4.8,5.0
Fc1ccc(N=Cc2ccc3ncccc3c2)cc1F,3.1,-18.0
CCOc1cc2[nH]c(=S)n(CCC(OCC)OCC)c(=O)c2cc1OCC,/,5.0
COc1ccc(S(=O)(=O)N2CCN(Cc3cccc(F)c3)CC2)c(OC)c1,-0.8,7.0
CCOC(=O)c1c(-c2ccccc2)oc2c1cc(OC(=O)c1ccccc1Cl)c1ccccc12,0.5,/
Cc1cc(C(=O)NCCC2=CCCCC2)c(C)o1,4.3,1.0
CCC(O)c1nc2ccccc2n1CC1CCCCC1 (configuration not stated),/,-1.0
# The list goes on:
SMILES,MgrA DNA FP,Sa helicase inh
Cc1cc2ccccc2n1CCNC(=O)C(C)C,/,-15.0
CCN(CC)C(=O)c1c(NC(=O)c2ccco2)sc2c1CCCCC2,3.1,2.0
O=C(Nc1ccsc1C(=O)N1CCOCC1)c1ccccc1,-2.0,/
CCOC(=O)c1ccc2c(c1)N(C)C(=O)c1ccccc1S2,0.6,13.0
CC1CCc2c(sc(NC(=O)COn3nnc4ccccc43)c2C(N)=O)C1 (configuration not stated),/,-8.0

# Look-ups from the entries so far:
# Under Sa helicase inh, COc1ccc(N2CCN(C(=O)[C@H](C)N3C(=O)c4cc(Cl)c(Cl)cc4C3=O)CC2)cc1 has 10.0
# Under Sa helicase inh, Cc1nc2ccccn2c1/C=C1\C(=O)N(C)C(=S)N1C has -1.0
# Under MgrA DNA FP, CC1CC2=C(NC(=S)NC2c2ccc(Cl)cc2)/C(=C/c2ccc(Cl)cc2)C1 (configuration not stated) has 1.2
# Under MgrA DNA FP, O=C(O)CC1(CC(=O)N2CCc3ccccc32)CCCC1 has 0.2
# Under MgrA DNA FP, CCCC1OCC2(CO)C(C)C=C(C)C1C2C (configuration not stated) has 1.2

# Compound activity from PubChem.
